Compound activity as filed in PubChem.
UUG fidelity: alters start codon recognition fidelity in yeast. actives 0.13% (n = 350,000). S. cerevisiae UUG-firefly luciferase reporter, luminescence/redox ratio. activity score, % at 18.7 µM. AID 602363;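 active means replicate mean at a twofold rise or more, about +100% in these data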;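 further: firefly luciferase made from a UUG start codon reports start codon fidelity; reporter light over untreated wells divided by growth signal over untreated wells; some hits fall short of that in this replicate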
HIV Env fusion: HIV envelope-mediated fusion inhibition | HeLa-JRFL Env/CEM21 cell fusion, luciferase | inhibition, % at 12.3 µM | actives 1.1% (n = 360,000);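 active means mean replicate inhibition score of at least 50 and every replicate individually at or above 50; inconclusive means only one of the two criteria met; inactive means mean below 50 and not all replicates reaching 50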;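 further: 0% = plate neutral controls and 100% = maraviroc near 300 nM; one replicate is shown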
Rce1 inhib: blocks yeast Ras-converting enzyme | Q03530 | yeast membranes, quenched prenylated peptide cleavage fluorescence | calls only | actives 0.27% (n = 290,000);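 active means fall in fluorescence gain of 50% or more versus controls, with final raw signal at or below 3038400; inconclusive means same 50% fall but final raw signal above 3038400; inactive means fall in fluorescence gain under 50%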;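 further: plate controls were neutral control wells for no effect and wells lacking membranes for full effect; tested at 10 µM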
eIF4H FP inh: inhibitors of RNA binding by human eIF4H; eIF4H fluorescence polarization binding assay; AID 2012; Q15056; actives 0.94% (n = 290,000); inhibition, % at 35 µM;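 active means 50% or more with normal probe brightness, or confirmed in later tests; inconclusive means above 50% with abnormal brightness, or retests that disagree; inactive means below 50% or failed in later tests; about a fifth of its hits are not listed in these tables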;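 further: calls also rest on retests at 20 µM and on dose response follow-up; 0% = protein and probe with vehicle and 100% = probe without protein; strong numbers were not always called active; many hits fall short of the cut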
MT1-MMP act inh: inhibitors of human MT1-MMP activation | AID 651647 | HT1080 RFP-PRO-GFP cells, GFP/RFP ratio fluorescence, overnight; percent of plate control window, DMSO zero | GFP/RFP ratio change, % at 20 µM | actives 0.061% (n = 360,000) | P50281;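 active means GFP/RFP ratio change of at least 30% with cell ATP level not reduced by more than half and red fluorescence within 50% of control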; further: strong numbers were not always called active
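Assay system – RFP-PRO-GFP reporter HT1080 cells · Compound dosing – single dose of 20 µM compound, 1% DMSO final · Incubation – overnight compound exposure at 37 °C · Measure – GFP/RFP fluorescence ratio · Benchmarks – DMSO wells and RFP-L50D-GFP cells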
CSC inhib: cancer stem cell inhibition; cancer stem cell-like cells viability, luminescence; inhibition, % at 7.5 µM; AID 2717; actives 1.1% (n = 300,000);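 active means mean at 75% or more and at least half the replicates too; inconclusive means mean and replicates disagree; tested in HMLE shEcad cells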;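 further: 0% = median of negative and 100% = median of positive control wells; the first replicate is given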
PABP FP inh: blocks human PABP binding to poly(A) RNA. P11940. inhibition, % at 35 µM. fluorescence polarization. actives 1% (n = 290,000). AID 2014;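 active means 50% or more with normal probe brightness, or confirmed in later tests; inconclusive means above 50% with abnormal brightness, or retests that disagree; inactive means below 50% or failed in later tests; about a fifth of its hits are not listed in these tables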;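 further: calls also rest on retests at 20 µM and on dose response follow-up; controls were probe without protein and protein plus probe with vehicle; some compounds called inactive have numbers as strong as hits; many hits fall short of the cut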
Target sequence (P11940 whole entry, looked up): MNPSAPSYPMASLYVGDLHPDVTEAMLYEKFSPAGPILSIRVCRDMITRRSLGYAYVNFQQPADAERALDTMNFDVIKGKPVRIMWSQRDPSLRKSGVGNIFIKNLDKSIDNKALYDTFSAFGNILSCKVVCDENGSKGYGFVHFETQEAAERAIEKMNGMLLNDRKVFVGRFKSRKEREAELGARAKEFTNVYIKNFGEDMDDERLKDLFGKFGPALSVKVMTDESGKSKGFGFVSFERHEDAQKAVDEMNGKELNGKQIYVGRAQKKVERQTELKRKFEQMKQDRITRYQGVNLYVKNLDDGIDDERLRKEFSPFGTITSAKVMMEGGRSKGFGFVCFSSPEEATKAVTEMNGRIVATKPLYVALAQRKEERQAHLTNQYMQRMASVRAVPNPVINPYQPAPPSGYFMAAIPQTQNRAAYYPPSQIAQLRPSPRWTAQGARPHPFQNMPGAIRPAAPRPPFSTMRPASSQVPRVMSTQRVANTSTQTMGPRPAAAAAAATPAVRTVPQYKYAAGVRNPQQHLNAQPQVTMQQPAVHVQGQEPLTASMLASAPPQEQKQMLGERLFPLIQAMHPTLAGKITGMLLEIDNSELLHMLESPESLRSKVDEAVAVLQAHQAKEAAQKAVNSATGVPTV
eIF4H FP inh retest: second read-out of eIF4H FP inh, no call of its own (marks repeat the call); inhibition, %; compound at 20 µM; confirmation average;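 mean of two retest wells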
PABP FP inh retest: also measured in PABP FP inh; calls as there; inhibition, %; compound at 20 µM; confirmation repeats;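 mean of two retest wells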
MT1-MMP act inh RFP: second read-out of MT1-MMP act inh, no call of its own (marks repeat the call); RFP signal change, %; measured here: RFP expression control read;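 0 = vehicle wells; hits needed this value within 50% of zero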
* hit, by the source's call; i = inactive; ? = inconclusive; nt = not tested or not shown.

SMILES | UUG fidelity | HIV Env fusion | Rce1 inhib | eIF4H FP inh | MT1-MMP act inh | MT1-MMP act inh RFP | CSC inhib | PABP FP inh | others
N#Cc1ccccc1CSc1nnc(Cc2ccccc2)o1 | nt | -10 | i | -4 | 1 | 0 | -50 | 0
CN(CC(=O)Nc1ccccc1Cl)C(=O)c1ccccc1Sc1ccccc1C#N | -9 | nt | i | nt | -1 | -5 | -10 | nt
Cc1ccc2c(CN(C)Cc3ccc(Cl)cc3)cc(=O)oc2c1 | -14 | -1 | i | -18 | 1 | -2 | -3 | 4
Cc1ccc(N(CC(=O)Nc2c(C)n(C)n(-c3ccccc3)c2=O)S(C)(=O)=O)c(C)c1 | nt | -5 | i | 0 | -1 | 3 | -13 | -15
CCOC(=O)CCC(NC(=O)CC(=O)NC(CCC(=O)OCC)C(=O)OCC)C(=O)OCC (stereo not given) | nt | 7 | i | 23 | -1 | 2 | -10 | 9
NNS(=O)(=O)c1ccc(N2CCCC2=O)c([N+](=O)[O-])c1 | nt | -13 | i | -5 | -3 | -1 | -6 | -6
COc1cccc(-c2sc3ccccc3c2-c2ccc(OCCN(C)C)cc2)c1 | -16 | 31 | nt | nt | 4 | -5 | 104* | nt
CN(C(=S)Nc1ccc(F)cc1)C(c1ccccc1)c1ccccc1 | -25 | 0 | i | 7 | -2 | -5 | 3 | 6
Cc1ccccc1C(=O)N1CCC(C(=O)Nc2ccccc2Cl)CC1 | 7 | -1 | i | -15 | -3 | -1 | -11 | -3
O=C(Oc1ccc(Cl)cc1)N1CCCCC1 | -13 | -60 | nt | -3 | 4 | 6 | -9 | 2
COc1cccc(/C=C2/SC(=S)N(CC(=O)Nc3nnc(C)s3)C2=O)c1 | 3 | 5 | nt | 20 | 15 | 3 | nt | 18
COc1cccc(C(=O)OCCN(C)C(C)(C)C)c1 | nt | nt | i | -1 | nt | nt | nt | -7
C=C(C)CNC(=S)NNC(=O)c1ccncc1 | nt | 18 | nt | -9 | -2 | 2 | 4 | -10
Cc1cccc(CC2CC(=O)N(c3ncccn3)C2=O)c1 (stereo not given) | -7 | -24 | i | -6 | 13 | 7 | 5 | -14
CCn1c(=O)n(CCOC)c(=O)c2c3c(sc21)CCCC3 | -1 | nt | i | -2 | -2 | -5 | -3 | 16
COc1ccccc1C(=O)NCC(=O)OCCCOC(=O)CNC(=O)c1ccccc1OC | 6 | -7 | i | -2 | 1 | 1 | -4 | 32
CC(=O)N1CCCc2cc(S(=O)(=O)N3CCCC(C(=O)NCc4ccccc4Cl)C3)ccc21 (stereo not given) | -2 | 11 | i | 10 | 1 | -11 | -16 | 13
O=C(Cn1ccc2ccccc2c1=O)NCC(=O)N1CCN(c2ccccc2F)CC1 | -1 | 11 | i | -1 | -2 | 1 | -7 | 10
CCC(C)n1c(SCC(=O)NC2CCS(=O)(=O)C2)nc2ccccc2c1=O (stereo not given) | 0 | -14 | i | nt | 1 | 1 | -4 | nt
CC1(C)CC(NS(=O)(=O)c2ccc3ccccc3c2)CC(C)(C)N1 | 7 | -11 | i | -2 | -3 | 1 | -5 | -1
CCN(CC(=O)NCc1cccs1)S(=O)(=O)c1ccccc1Cl | -7 | 4 | i | nt | -2 | 2 | -4 | nt
O=C(/C=C/c1ccc(Cl)cc1)OCC(=O)c1ccc[nH]1 | -19 | -8 | nt | nt | -2 | 0 | nt | nt
O=C(N/N=C/c1ccc[nH]1)c1ccc(Cl)cc1 | -11 | -19 | i | 10 | 0 | -1 | -5 | -2
COc1ccc(N2C(=O)N[C@@H](Cc3ccccc3)C2=O)cc1OC | -5 | 7 | i | 7 | 2 | 7 | -11 | 2
CCOC(=O)CCCCC1C(CCCC(=O)OCC)C=NN1C (stereo not given) | 4 | 19 | nt | nt | -2 | 1 | nt | nt

(listing goes on)
SMILES | UUG fidelity | HIV Env fusion | Rce1 inhib | eIF4H FP inh | MT1-MMP act inh | MT1-MMP act inh RFP | CSC inhib | PABP FP inh | others
Cc1ccc([N+](=O)[O-])cc1NC(=O)C(Sc1ccccc1)c1ccccc1 (stereo not given) | nt | 67* | i | -8 | -6 | -6 | 8 | -14
CCN1CCN(c2cc(C)c3cc(NC(=O)CCC(=O)N4CCN(c5ccccc5)CC4)ccc3n2)CC1 | -4 | 3 | i | -2 | -1 | -1 | 16 | 8
Cc1noc(C(=O)N(C)c2ccccc2)c1Cl | -7 | 0 | i | -4 | -2 | -1 | -10 | 4
O=S(=O)(Nc1ccc2ccccc2c1)c1ccccc1 | nt | -1 | i | -4 | 0 | 3 | -6 | 10
CCCCOc1cccc(C(=O)Nc2ccccc2N2CCCC2)c1 | -9 | 18 | i | -11 | -3 | -5 | 5 | -10
CN(C)S(=O)(=O)c1ccc(C(=O)Nc2cc(S(=O)(=O)Nc3ccccc3Cl)ccc2N2CCCCC2)cc1 | -8 | 20 | i | -4 | 6 | -3 | -7 | 0
COc1ccc(N=C2S/C(=C\c3ccc(OCC(=O)O)cc3)C(=O)N2CCc2c[nH]c3ccccc23)cc1 | nt | 17 | nt | 89 | -8 | -6 | nt | 44* | eIF4H FP inh retest=3;PABP FP inh retest=76*
O=C(CSc1ccc2nnc(CCNS(=O)(=O)c3ccccc3)n2n1)Nc1nc2ccccc2s1 | nt | 10 | i | 0 | -5 | 2 | -24 | 9
COc1ccc(OCC(=O)Nc2ccc(N3CCN(Cc4ccccc4F)CC3)cc2)cc1 | -11 | 6 | i | 1 | 4 | -1 | 2 | 7
CC1Cc2ccccc2N1C(=O)CN1CCN(S(=O)(=O)c2cccs2)CC1 (stereo not given) | -16 | nt | nt | nt | -4 | 2 | 11 | nt
Cc1nn(C)cc1S(=O)(=O)N1CCCC(C(=O)O)C1 (stereo not given) | -19 | 7 | i | -2 | 6 | 6 | -6 | -16
CCN1CCN(C(=O)c2ccccc2NS(=O)(=O)c2ccc(Cl)cc2)CC1 | nt | 13 | i | -1 | -1 | 1 | 8 | 1
CCN(CC)c1ccc(C(=O)Nn2cnc3ccccc3c2=O)cc1 | -8 | 19 | i | -1 | 2 | 1 | 0 | -9
Cc1ccccc1N1CCN(C2=NC(=O)/C(=C/c3cn[nH]c3-c3ccccc3)S2)CC1 | nt | nt | i | ? | 1 | -4 | 16 | 52* | PABP FP inh retest=124*
COCCNC(=O)c1cn(C)c(=O)c2cc(OC)c(OC)cc12 | nt | -30 | i | -2 | 2 | 2 | -3 | -4
Cc1ccc(Cc2c(-c3ccc(Cl)cc3)nc3ccc(Br)cn23)cc1 | -1 | -32 | nt | nt | -5 | -6 | nt | nt
CCOC(=O)c1[nH]cnc1C(=O)O | -21 | nt | i | 7 | -3 | 0 | -9 | -5
CC1CN(S(=O)(=O)c2cccc(C(=O)OCc3cc(=O)oc4cc(O)ccc34)c2)CC(C)O1 (stereo not given) | -1 | -39 | i | 38 | -7 | -4 | 15 | 21
O=C1N/C(=N/NC(=O)c2cccc3ccccc23)S/C1=C\c1ccccc1OCc1ccccc1 | -19 | -6 | nt | 17 | -3 | -9 | nt | -9
O=C1c2cccc3cccc(c23)C(=O)N1CCN1CCN(CC(O)COc2ccccc2)CC1 (stereo not given) | -1 | -5 | i | 13 | 0 | 2 | 27 | 6
CCOc1cc(C(=O)NCc2ccc3c(c2)OCO3)cc(OCC)c1OCC | -6 | -49 | i | 1 | -1 | -1 | -13 | -9
CCOc1ccc(NC(=O)CN2CCN(S(=O)(=O)c3ccc(Cl)cc3)CC2)cc1 | -3 | nt | i | -4 | -2 | -2 | -14 | 5
CCN1C(=O)C(NC(C)=O)c2cc(OC)ccc21 (stereo not given) | 0 | nt | i | -6 | 1 | -1 | -6 | -4
CCOc1cc(CN2CCC(CO)(Cc3cccc(C(F)(F)F)c3)CC2)ccc1OC | nt | 27 | i | -6 | 4 | 1 | 12 | -2
N#Cc1c(-c2ccccc2)nc(SCc2cccc(Cl)c2)[nH]c1=O | -14 | 0 | i | 6 | -3 | 0 | 107* | 9

Additional compounds:
SMILES | UUG fidelity | HIV Env fusion | Rce1 inhib | eIF4H FP inh | MT1-MMP act inh | MT1-MMP act inh RFP | CSC inhib | PABP FP inh | others
Cn1c(C(=O)N2CCN(c3nc4ccccc4s3)CC2)cc2sccc21 | 0 | 71* | i | 0 | -3 | -18 | nt | 1
CC(C)n1c2ccccc2c2nc3ccccc3nc21 | -16 | nt | i | 10 | -8 | -3 | 66 | 58 | eIF4H FP inh retest=-4;PABP FP inh retest=2
CC(C)(C)c1cc(C(=S)N2CCCC2)cc(C(C)(C)C)c1O | -28 | 21 | i | 2 | 0 | -6 | -8 | 17
O=C(c1ccccc1)C(CCc1ccccn1)CCc1ccccn1 | -14 | -25 | nt | nt | 0 | 0 | nt | nt
CC1(C)CC(=O)C=C(c2cccc(Cl)c2O)C1 | -18 | 15 | nt | nt | 1 | -4 | -16 | nt
Cc1ccc2c(c1)N(C(=O)CCC(=O)NC1CCCCCC1)CCO2 | 4 | 2 | i | -10 | 3 | 0 | -8 | -4
CC(=O)NC12CC3CC(C1)CC(C(=O)Nc1nc4ccc(F)cc4s1)(C3)C2 | -3 | 2 | i | -3 | -3 | -7 | 17 | -12
CCOc1ccc(CCNC(=O)CCNC(=O)c2ccccc2Cl)cc1OCC | -14 | 0 | i | -2 | -3 | 3 | -9 | -6
COc1cccc(/C(O)=C2/C(=O)C(=O)N(CCN3CCOCC3)C2c2cccnc2)c1 (stereo not given) | -19 | nt | i | -9 | 0 | 0 | -2 | 20
CCOc1ccc(C2CC(c3ccc(OC)cc3)n3ncnc3N2)cc1 (stereo not given) | -29 | -14 | i | -10 | 3 | 0 | -35 | -10
O=C1CSC(c2cn(-c3ccccc3)nc2-c2cc3ccccc3o2)N1Cc1ccccc1 (stereo not given) | -20 | -18 | i | -4 | 0 | -4 | 21 | 0
CCCC(=O)Nc1ccc(NC(=O)c2ccco2)cn1 | -20 | -61 | i | -6 | 1 | 2 | -2 | 3

Nine compounds out of the list, sorted by molar mass, descending.
SMILES | UUG fidelity | HIV Env fusion | Rce1 inhib | eIF4H FP inh | MT1-MMP act inh | MT1-MMP act inh RFP | CSC inhib | PABP FP inh | others
COc1ccc(N=C2S/C(=C\c3ccc(OCC(=O)O)cc3)C(=O)N2CCc2c[nH]c3ccccc23)cc1 | nt | 17 | nt | 89 | -8 | -6 | nt | 44* | eIF4H FP inh retest=3;PABP FP inh retest=76*
O=C(CSc1ccc2nnc(CCNS(=O)(=O)c3ccccc3)n2n1)Nc1nc2ccccc2s1 | nt | 10 | i | 0 | -5 | 2 | -24 | 9
COc1ccc(OCC(=O)Nc2ccc(N3CCN(Cc4ccccc4F)CC3)cc2)cc1 | -11 | 6 | i | 1 | 4 | -1 | 2 | 7
CCC(C)n1c(SCC(=O)NC2CCS(=O)(=O)C2)nc2ccccc2c1=O (stereo not given) | 0 | -14 | i | nt | 1 | 1 | -4 | nt
CC(=O)NC12CC3CC(C1)CC(C(=O)Nc1nc4ccc(F)cc4s1)(C3)C2 | -3 | 2 | i | -3 | -3 | -7 | 17 | -12
CC1(C)CC(NS(=O)(=O)c2ccc3ccccc3c2)CC(C)(C)N1 | 7 | -11 | i | -2 | -3 | 1 | -5 | -1
Cc1cccc(CC2CC(=O)N(c3ncccn3)C2=O)c1 (stereo not given) | -7 | -24 | i | -6 | 13 | 7 | 5 | -14
CC1(C)CC(=O)C=C(c2cccc(Cl)c2O)C1 | -18 | 15 | nt | nt | 1 | -4 | -16 | nt
CCOC(=O)c1[nH]cnc1C(=O)O | -21 | nt | i | 7 | -3 | 0 | -9 | -5
